# From PubChem BioAssay
# TRPML1 ag = human mucolipin-1 channel agonism; Q9GZU1; TRPML1-expressing cells, Ca2+ dye fluorescence, FDSS; host cell line not named in the record; reference of the full effect not given here; activation, % (test concentration not listed); hit rate 0.12% among 410,000; AID 624414; in the data active = activation above about 50%; inconclusive = about 30% to 50%; inactive = below about 30%; also: 0% is about no effect; the text of the record puts the active cut at 80%
# Target sequence (Q9GZU1 whole entry, looked up): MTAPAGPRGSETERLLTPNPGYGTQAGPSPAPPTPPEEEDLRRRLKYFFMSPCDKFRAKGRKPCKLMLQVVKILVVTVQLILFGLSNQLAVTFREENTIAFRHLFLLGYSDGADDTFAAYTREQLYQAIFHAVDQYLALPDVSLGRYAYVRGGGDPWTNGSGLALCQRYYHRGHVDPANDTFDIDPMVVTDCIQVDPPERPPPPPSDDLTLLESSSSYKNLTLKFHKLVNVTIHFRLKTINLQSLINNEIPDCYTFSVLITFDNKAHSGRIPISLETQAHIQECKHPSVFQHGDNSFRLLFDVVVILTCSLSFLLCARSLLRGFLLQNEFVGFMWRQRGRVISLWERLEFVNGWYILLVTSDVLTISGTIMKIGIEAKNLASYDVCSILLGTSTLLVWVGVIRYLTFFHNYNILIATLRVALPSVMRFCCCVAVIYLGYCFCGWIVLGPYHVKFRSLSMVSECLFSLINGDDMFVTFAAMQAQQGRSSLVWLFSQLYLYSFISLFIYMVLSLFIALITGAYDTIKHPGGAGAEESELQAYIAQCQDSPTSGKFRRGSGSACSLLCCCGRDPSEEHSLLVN
#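 In this qHTS format, compounds were pin-transferred onto Ca8-dye-loaded TRPML1-DL cells induced with Tet overnight, and intracellular Ca2+ fluorescence was recorded kinetically for 110 s after a 10 s baseline. A subsequent 4uM final 54-4 (EC80) addition followed by a second 110 s read served as the antagonist phase.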
# PINK1 expr mod = PINK1 expression modulation; hit rate 0.2% among 410,000; Potency, µM (highest dose often 76.6 µM), without a hit: at the highest dose activation (PINK1 increase), hits mostly activators; AID 624263; PINK1 immunofluorescence, high-content cytometry, 24 h; active = well fitted activation curve with a large enough effect; inconclusive = small, poorly fitted or top-dose-only effect; inactive = flat fitted curve, though single readings scatter; cell line not stated here;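 also: potency is read from the fitted curve at half-maximal effect; % of control where 0% means no effect; nearly all actives have a fitted effect of over 65% in size; a mitochondrial uncoupler was the plate control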
#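 Compound titrations (5 concentrations, 24 h) on a stable cell line; DMSO and CCCP controls. Endpoint: fixed-cell PINK1 immunofluorescence with mitochondrial, cell and nuclear markers, scanned by microplate cytometer.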
# Six1-Eya2 inh = Six1/Eya2 interaction inhibition; activity change, % (test concentration not listed); AlphaScreen GST-Six1/His-Eya2 binding, biochemical; hits give low values; control for the full effect not named in the record; hit rate 0.56% among 360,000; in the data active = activity change below about -65%; inconclusive = about -30% to -65%; inactive = above about -30%; also: % is scaled to controls: 0 for no effect and ±100 for the full control effect; compound concentration not given in the record
#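 Compounds are tested against tagged Six1 and Eya2 proteins bridged by glutathione donor and nickel acceptor beads; after a one-hour incubation at 37 °C without light, AlphaScreen emission is recorded.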
# D2 ag = agonists of human D2 dopamine receptor (beta-arrestin) | DiscoveRx PathHunter D2 beta-arrestin, luminescence, 90 min; 100% = 57 uM dopamine signal | activation, % (test concentration not listed) | hit rate 0.084% among 360,000; in the data active = activation above about 40%; inconclusive = about 15% to 40%; inactive = below about 15%; also: compound concentration not given in the record; the text of the record calls up to 30% inactive
# Target sequence (P14416 whole entry, looked up): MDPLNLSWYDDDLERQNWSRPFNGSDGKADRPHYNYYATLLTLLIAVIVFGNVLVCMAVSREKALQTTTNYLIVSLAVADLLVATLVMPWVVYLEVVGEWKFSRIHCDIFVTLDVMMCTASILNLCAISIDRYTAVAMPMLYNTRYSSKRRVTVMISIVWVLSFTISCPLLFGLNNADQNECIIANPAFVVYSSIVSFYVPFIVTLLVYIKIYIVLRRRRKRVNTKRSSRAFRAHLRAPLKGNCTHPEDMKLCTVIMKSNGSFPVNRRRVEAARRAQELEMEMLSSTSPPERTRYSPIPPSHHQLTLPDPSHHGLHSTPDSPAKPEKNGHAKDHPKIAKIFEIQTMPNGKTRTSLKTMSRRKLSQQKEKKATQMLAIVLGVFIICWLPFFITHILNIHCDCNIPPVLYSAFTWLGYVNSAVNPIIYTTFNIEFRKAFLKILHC
#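 DiscoveRx PathHunter D2 beta-arrestin cells (2,100/well) attached overnight, then compound-stimulated 90 min at 37 C in HBSS/10 mM HEPES/0.1% Tween-20 buffer; beta-galactosidase complementation read by luminescence after 1 h at ambient temperature. Dopamine 57 uM final (EC100) as control.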
# CtBP-E1A blk = CtBP/E1A binding inhibition | hit rate 0.49% among 340,000 | AID 651724 | activity change, % (test concentration not listed) | AlphaScreen GST-E1A/His-CtBP binding, 1536-well; hits give low values; control for the full effect not named in the record; in the data active means activity change below about -65%; inconclusive means about -30% to -65%; inactive means above about -30%; also: % is scaled to controls: 0 for no effect and ±100 for the full control effect; compound concentration not given in the record
#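 Protein mix (5X: 125 nM each GST-E1A, His-CtBP) was incubated with pinned compound 2 h at 37 deg C in dark, in 50 mM Tris pH 8.0 buffer with 300 mM NaCl. Glutathione donor and nickel acceptor beads followed; AlphaScreen signal read after 1 h.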
# TRPML1 inh = inhibitors of human TRPML1 channel. hit rate 0.02% among 390,000. TRPML1-inducible cells, Ca2+ dye fluorescence, FDSS; hits give low values; inhibition of EC80 agonist-evoked calcium signal. Q9GZU1. activity change, negative = inhibition, % (test concentration not listed); in the data active means activity change below about -50%; inconclusive means about -30% to -50%; inactive means above about -30%;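 also: stimulus is agonist 54-4 at its EC80 concentration; % is scaled to controls: 0 for no effect and ±100 for the full control effect; compound concentration not given in the record; the text of the record puts the active cut at -80%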
#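 Tet-induced TRPML1-DL cells loaded with Ca8 no-wash calcium dye were read kinetically on FDSS. Compound addition was followed by EC80 agonist 54-4 (4 uM final); inhibition was read over 110 s.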
# The depositor's hits bear a star; u = inconclusive; x = not tested or not shown; & = joins results of further samples; [ ] = another dose, or the depositor's remark.
SMILES,TRPML1 inh,CtBP-E1A blk,Six1-Eya2 inh,PINK1 expr mod,D2 ag,TRPML1 ag
COc1cc(/C=C/C(=O)N2CCN(C(=O)/C=C/c3cc(OC)c(OC)c(OC)c3)CC2)cc(OC)c1OC,4,5,9,-0.5%,3.0,-0.2
Cc1ccccc1NC(=O)CSc1nnc(Cc2ccccc2)c(=O)n1N,5,-21,4,9.8%,-5.1,0.8
Cc1cccc(NC(=O)CCCCCN2C(=O)[C@@H]3Cc4ccccc4CN3C2=O)c1,47,7,10,-0.6%,11,-0.1
COC(=O)c1sc(N)nc1C(C)(C)C,-9,9,0,2.1%,-2.9,-0.4
Cc1ccc(CNC(=O)c2c(Nc3c(C)cccc3C)sc(C(=O)c3ccccc3)c2N)cc1,1,x,x,8.0%,x,0.1
Cc1cc(-c2ccccc2)n2ncnc2n1,9,7,-2,-0.7%,-2.7,3.6
COc1cc2ccccc2cc1C(=O)OCC(=O)N1CCOCC1,-13,5,-2,-0.2%,0.1,-0.5
O=C(Cn1cnc([N+](=O)[O-])n1)N/N=C/c1cc(Cl)ccc1O,-5,-94*,-92*,-1.6%,0.7,1.0
COc1cc(OC)cc(-c2c(-c3ccc(F)cc3)c3cc(-c4ccc5cc[nH]c5c4)ccc3n2C)c1,0,-9,-6,u,-5.0,-0.6
Cc1ccc(C)c(N2CCN(C(=O)c3cc4c(=O)n(Cc5ccco5)ccc4nc3C)CC2)c1,-3,x,x,1.6%,x,0.5
CCOCCc1nn2c(=O)cc(COC(=O)c3ccc4c(c3)OCO4)nc2s1,2,x,x,-0.2%,x,0.3
COc1ccc(NS(=O)(=O)c2ccc(NC(=O)C3CC3)cc2)cc1,2,7,-3,1.2%,2.0,0.2
CC(=O)Nc1ccccc1-c1ccccc1[N+](=O)[O-],11,3,-3,-0.7%,-3.8,-0.7
CCOc1ccc(S(=O)(=O)n2cc(-c3ccc(F)cc3)c(N)n2)cc1,19,0,-2,-0.7%[38.3 µM],-0.3,5.8
Cc1cc(NC(=O)Cc2c(F)cccc2Cl)no1,0,12,3,-0.1%[38.3 µM],-2.7,0.3
CCOc1ccccc1CN1CCN(Cc2ccc(C)o2)CC1CCO (stereo unspecified),-6,x,-3,0.7%,0.5,-1.2
COc1ccc(Br)cc1CN(C)CC(=O)Nc1ccccc1Cl,4,16,6,2.8%,-3.0,0.8
CCCc1cc(C(=O)Nc2ccn(Cc3ccc(C)cc3)n2)no1,x,0,23,0.9%,8.5,x
CCOC(=O)c1c(NC(=O)c2cc(-c3ccc(O)cc3)on2)sc(C(C)=O)c1C,-12,2,-4,6.6%,-4.4,-0.8
CSc1nc2c(ccc3ccccc32)o1,9,24,22,u,-1.8,4.1
Cc1ccc(NC2CCCN(C(=O)C3CCCCC3)C2)cc1C (stereo unspecified),-3,-23,-21,-0.2%,-2.6,1.6
COc1ccc(-n2c(=O)cc(N3CCOCC3)[nH]c2=O)cc1,-3,11,1,2.1%[38.3 µM],1.9,-0.2
Cc1cc(-c2cc(C(=O)NCc3ccccc3)on2)nc(NC2CCCC2)n1,23,1,1,1.2%,-3.6,-0.3
COC(=O)c1nc(NC(=O)C(C)C)n[nH]1,8,13,0,-1.1%[38.3 µM],-3.7,0.2
CCOC(=O)c1c(C)[nH]c(C(=O)OC(C)C(=O)NC2CCCCC2C)c1C (stereo unspecified),-5,-1,1,5.0%,9.9,1.6
CCOC(=O)N1CCN(c2c(N3CCN(c4ccccn4)CC3)c(=O)c2=O)CC1,5,3,-7,-1.0%,-6.1,-1.2
CCCOc1ccc(N2CC(C(=O)Nc3ccccc3C(=O)NCc3ccco3)CC2=O)cc1 (stereo unspecified),-1,-6,-8,-0.9%[38.3 µM],0.2,1.3
COc1ccc(NC(=O)c2cc(C3CCCCN3C(=O)c3ccc(NC(C)=O)cc3)on2)c(C)c1 (stereo unspecified),x,-2,2,2.1%,-3.1,-0.4
NC(=O)Nc1ccccc1C(=O)N1CCC(O)(c2ccc(Cl)cc2)CC1,6,2,11,3.4%,-3.5,0.3
O=C(/C=C\c1cn(-c2ccccc2)nc1-c1ccc2c(c1)OCCO2)N1CCOCC1,-19,x,-1,-1.1%,-2.2,1.8
COc1ccccc1-c1c(C(F)(F)F)oc2cc(OC(=O)c3ccc([N+](=O)[O-])cc3)ccc2c1=O,-6,-9,-7,4.8%,-4.1,-0.1
CC(C)C[C@@H]1Cc2[nH]c(=S)[nH]c(=O)c2[C@H](CCc2ccccc2)O1,x,-2,36,u,x,-0.1
O=c1n(-c2ccc(Br)cc2)cnn1-c1ncccc1[N+](=O)[O-],73,0,-7,1.6%,11,0.0
Cc1cc(C)nc(N2CCC(C(=O)NC3CCCCCC3)CC2)n1,-6,7,5,1.2%[38.3 µM],-3.0,0.5
CCn1cc(C(=O)NN)c(=O)c2cc(F)c(N3CCN(C)CC3)cc21,5,x,1,0.1%,-4.0,0.8
Cc1cc2ncc(-c3ccc(Cl)cc3)cn2n1,42,-2,-2,-0.4%,0.4,-0.5
COc1ccc(N2CCN(c3ccc([N+](=O)[O-])nc3)CC2)cc1,-13,-4,-7,1.3%,-2.5,-0.3
COc1ccc(-n2nc(C(=O)NCC(=O)Nc3cccc(NC(C)=O)c3)c3ccccc3c2=O)cc1,-9,-18,15,-1.4%,4.4,-0.3
CC(=O)N(c1cc(C)ccc1C)c1ccccc1[N+](=O)[O-],22,-25,-10,-2.3%,2.3,2.4
c1ccc(NCc2nc3ccccc3n2CCOc2ccccc2)cc1,14,1,-1,1.8%,0.9,2.7
Cc1ccc2c(C)c(C(=O)N3CCN(c4ncccn4)CC3)oc2c1C,-19,-9,-2,0.5%,-1.4,2.6
CCN(Cc1ccc(OC)c(F)c1)C(=O)c1cc2ccccc2o1,31,-1,-19,1.0%,1.5,1.4
CCOc1ccc(N=C2NC(=O)C(CC(=O)Nc3ccc(OC)cc3)S2)cc1 (stereo unspecified),-11,x,7,8.9%,-4.4,0.6
CC1(C)Cc2c(C#N)c(SCC(=O)O)nc(N3CCOCC3)c2CO1,12,-1,6,0.7%,-5.3,0.2
CC(=O)Nc1ccc(NC(=O)c2cc(=O)c3ccccc3o2)cc1,4&1,-2,-7,-0.3%&-1.4%,-2.4,-0.5&-1.1
CCOC(=O)C1=C(CN2CCc3ccccc32)NC(=O)NC1c1ccc(Cl)cc1 (stereo unspecified),-6,-19,-22,-3.8%[38.3 µM],-4.3,6.4
O=C(CN1C(=O)c2ccccc2C1=O)Nc1cccc2cccnc12,47,0,-4,2.5%,3.4,0.0
O=C(c1cc2ccccn2n1)N1CCN(Cc2ccccc2)CC1,13,-1,7,-0.9%,2.0,0.1
CCC(=O)Nc1ccc(/C(C)=N\NC(=O)c2ccc(C)s2)cc1,-1,-1,-2,1.3%,-4.1,6.4
CC(C)(C)OC(=O)N1CCC[C@@H]1C(=O)N1CCC[C@@H]1C(=O)NCc1ccccc1Cl,x,6,-4,-0.3%,x,-0.8
CC(CCc1ccccc1)NC(=O)COc1ccc(S(=O)(=O)N2CCOCC2)cc1[N+](=O)[O-] (stereo unspecified),-12,-3,-5,1.3%,2.8,-0.1
CCc1ccc(NCc2cc3ccc(OC)cc3n(CC(=O)Nc3cccc(Cl)c3C)c2=O)cc1,65,x,x,4.5%,x,5.3
COc1ccc(/C=N/Nc2nc3ccccc3o2)cc1OC,-1,-3,3,2.0%[38.3 µM],-1.7,-0.3
CC(NC(=O)C1CCN(S(=O)(=O)c2ccc(F)cc2)CC1)c1ccccc1 (stereo unspecified),5,x,x,-0.2%,x,-1.0
CC(C)=CCN1CCN(Cc2ccoc2)CC1CCO (stereo unspecified),20,-23,7,0.9%,-7.0,1.1
COc1cccc([C@@H]2CC=C(C(=O)O)[C@H](c3ccc(C)cc3)N2S(=O)(=O)c2ccc(C)cc2)c1,-4,3,8,-0.9%,-3.4,-0.5
Cc1cc(/C=C2\C(=N)N3N=C(C(C)C)SC3=NC2=O)c(C)n1-c1ccccc1,3,-23,4,2.0%,-2.6,0.4
Cn1ccnc1C(O)c1cc(C(C)(C)C)c(O)c(C(C)(C)C)c1 (stereo unspecified),-16,14,-4,-0.5%[38.3 µM],-1.3,-0.2
CCOCCCNC(=O)C(NC(=O)Cc1cccs1)c1ccc(OC)cc1 (stereo unspecified),3,3,0,-0.1%,-4.1,-0.2
Cc1cc(C=NCCCO)c(C)n1-c1cc(Cl)ccc1Cl,11,4,4,3.8%,-2.0,1.6

# (cont.)
SMILES,TRPML1 inh,CtBP-E1A blk,Six1-Eya2 inh,PINK1 expr mod,D2 ag,TRPML1 ag
Cc1cc(C)n(CCc2nc3c4ccccc4nc(N4CCN(c5ccc(F)cc5)CC4)n3n2)n1,-9,x,x,-1.1%,x,-1.0
CCOc1ccc(N(CC(=O)Nc2c(C)cccc2C)S(=O)(=O)c2c(C)[nH]c(=O)[nH]c2=O)cc1,3,-3,3,1.7%,-0.3,0.9
Cc1noc(NS(=O)(=O)c2ccc(NC(=O)c3ccc(OC(C)C)cc3)cc2)c1C,-11,1,4,-0.3%,-1.3,-0.4
CC(=O)c1cccc(NC(=O)CSc2ncc(C(=O)Nc3ccccc3)c(=O)n2C)c1,33,-27,4,1.3%,-3.7,-0.1
COc1ccccc1NC(=O)Cn1nc(Cc2cccnc2)c2ccccc2c1=O,-3,0,3,-1.7%,1.0,1.4
COc1ccccc1NC(=O)COC(=O)/C=C/c1ccc2c(c1)OCO2,0,u,-15,6.0%,-3.4,0.6
COc1cccc(C(=O)Nc2c3c(nn2-c2ccccc2C)CS(=O)C3)c1OC (stereo unspecified),-19,0,1,0.4%,-0.4,1.4
COc1ccccc1C(=O)CSc1ccccn1,-3,-20,4,2.2%,-0.6,-0.7
CCOc1ccc(/C=C2\SC(N3CCc4ccccc4C3)=NC2=O)cc1,1,24,-4,u,-0.5,1.8
CC(C)c1ccc2oc(-c3ccc(NC(=O)c4cccc(Br)c4)cc3)nc2c1,-4,x,x,2.2%,x,0.5
Cc1cccc(NC(=O)Cc2ccc(-n3c(C)nc4cccnc43)cc2)c1C,-9,x,x,1.6%,x,-0.5
CN(Cc1ccccc1)C(=O)Cc1ccccc1,-9,x,14,-0.3%,-0.7,-1.1
O=C(Nc1cccc(Cl)c1)Nc1c[nH]c(=O)[nH]c1=O,13,2,-10,0.4%,4.1,0.0

# Records listed above printed as active in CtBP-E1A blk:
mol | TRPML1 inh | CtBP-E1A blk | Six1-Eya2 inh | PINK1 expr mod | D2 ag
O=C(Cn1cnc([N+](=O)[O-])n1)N/N=C/c1cc(Cl)ccc1O | -5 | -94* | -92* | -1.6% | 0.7
